Compound activity from PubChem.
TRPV1 PAM: potentiators of human vanilloid receptor 1 (TRPV1). TRPV1-expressing cells, Fluo-8 calcium influx, capsaicin EC20 potentiation; host cell line not named in the record; control for the full effect not named in the record. potentiation, % at 8.33 µM. 320,000 tested, 0.02% active; active means potentiation above 80%; inconclusive means 30% to 80%; inactive means below 30%; also: 0% is about no effect
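TRPV1-expressing cells were cultured overnight at 35.5C and loaded with Fluo-8 calcium dye for 40 to 90 min at room temperature. After a 10 s baseline, compound was added and calcium influx was read kinetically for 3 min (ex 480/em 520 nm).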
ClpP mod: qHTS Assay for Activators of ClpP | ATP-dependent Clp protease proteolytic subunit (Bacillus subtilis (strain 168)), P80244 | purified B. subtilis ClpP, FRET peptide cleavage, 20 min | Potency, µM (highest dose often 57.5 µM), without a hit: at the highest dose activity change, negative = active | 340,000 tested, 1.9% active | AID 651965, 2013; active = well fitted falling curve with a large enough effect; inconclusive = small, poorly fitted or top-dose-only effect; inactive = no such curve, though single readings can be large or run the other way; also: potency is read from the fitted curve at half-maximal effect; the source files actives as falling curves though it sought activators and does not explain the sign; nearly all actives have a fitted effect of over 65% in size; many hits overshoot -100%
Target sequence (P80244 whole entry, looked up): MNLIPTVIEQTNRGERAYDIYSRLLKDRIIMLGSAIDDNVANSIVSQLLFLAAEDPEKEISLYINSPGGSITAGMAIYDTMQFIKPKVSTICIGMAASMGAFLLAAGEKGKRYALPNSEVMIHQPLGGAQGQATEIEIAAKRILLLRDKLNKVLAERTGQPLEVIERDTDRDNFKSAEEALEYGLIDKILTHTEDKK
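Purified B. subtilis ClpP, 10 microg/mL final in Tris/HCl pH8 with KCl, BSA, glycerol and Tween-20, cleaved an Abz/nitrotyrosine-quenched decapeptide. Fluorescence (ex 320, em 430) was read at 0 and 20 min at room temperature. Delta was normalized to 5.8 microM ADEP and DMSO/no-enzyme controls.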
Sfp PPTase inh: inhibitors of Bacillus subtilis Sfp phosphopantetheinyl transferase | Biochemical Sfp PPTase activity, qHTS | Potency, µM, inactives show max response, negative = inhibition, most hits filed as inhibitors | 310,000 tested, 3.5% active | AID 1490; active = well fitted inhibition curve with a large enough effect; inconclusive = small, poorly fitted or top-dose-only effect, or another doubt; inactive = no such curve, though single readings can be large or run the other way;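 also: the enzyme is Sfp with the accession as filed and its product quenches rhodamine fluorescence; potency is read from the fitted curve at half-maximal effect; 0% = enzyme reaction without inhibitor and -100% = no enzyme wells; top concentration of the series not given in the record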
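Buffer: 50 mM Hepes-Na pH 7.6, 10 mM MgCl2, 0.01% Nonidet P-40, 0.01% BSA. Enzyme 15 nM, pre-exposed to compound 15 min; substrates then added and fluorescence change tracked over 30 min.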
gsp ag: agonists of gsp mutant (McCune-Albright syndrome); 340,000 tested, 0.13% active; AID 624287; gsp mutant cells, cAMP HTRF, 30 min; control for the full effect not named in the record; Potency, µM (doses to about 76.9 µM), without a hit: at the highest dose activation (cAMP increase), most hits filed as activators; active = well fitted activation curve with a large enough effect; inconclusive = small, poorly fitted or top-dose-only effect, or another doubt; inactive = no such curve, though single readings can be large or run the other way; cell line not stated here;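 also: phosphodiesterase inhibitor Ro 20-1724 added with compounds to block cAMP breakdown; potency is read from the fitted curve at half-maximal effect; nearly all actives have a fitted effect of over 60% in size; about a fifth of the inactives were tested at one dose only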
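Cells stably selected in G418 were plated at 2000/well, grown 16-24 hr, then given compounds in DMSO with the PDE inhibitor […] (300 uM solution added) for 30 min at 37C; cAMP was read by HTRF.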
TRPML1 blocker: blocks the human TRPML1 channel | TRPML1-inducible cells, Ca2+ dye fluorescence, FDSS; active compounds read low; inhibition of EC80 agonist-evoked calcium signal | 390,000 tested, 0.02% active | activity change, negative = inhibition, % (no concentration beside the values) | AID 624415; in the data active means activity change below about -50%; inconclusive means about -30% to -50%; inactive means above about -30%;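 also: stimulus is agonist 54-4 at its EC80 concentration; % is scaled to controls: 0 for no effect and ±100 for the full control effect; compound concentration not given in the record; the text of the record puts the active cut at -80%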
Target sequence (Q9GZU1 whole entry, looked up): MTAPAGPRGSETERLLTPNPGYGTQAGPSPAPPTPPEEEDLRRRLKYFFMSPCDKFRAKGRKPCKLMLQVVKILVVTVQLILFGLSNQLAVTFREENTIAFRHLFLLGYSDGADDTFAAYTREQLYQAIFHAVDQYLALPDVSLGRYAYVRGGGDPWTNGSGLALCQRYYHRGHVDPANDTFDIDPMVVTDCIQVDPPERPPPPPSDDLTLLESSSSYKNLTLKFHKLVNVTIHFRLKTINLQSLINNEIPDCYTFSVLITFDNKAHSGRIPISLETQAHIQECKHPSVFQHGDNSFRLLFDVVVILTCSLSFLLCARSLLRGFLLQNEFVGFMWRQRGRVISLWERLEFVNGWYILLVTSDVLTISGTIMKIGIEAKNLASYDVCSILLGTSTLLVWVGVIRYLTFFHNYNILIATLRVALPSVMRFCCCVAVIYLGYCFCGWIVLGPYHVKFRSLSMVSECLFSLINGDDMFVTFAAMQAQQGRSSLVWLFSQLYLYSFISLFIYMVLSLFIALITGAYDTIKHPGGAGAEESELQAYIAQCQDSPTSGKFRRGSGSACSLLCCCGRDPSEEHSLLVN
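Tet-induced TRPML1-DL cells loaded with Ca8 no-wash calcium dye were read kinetically on FDSS. Compound addition was followed by EC80 agonist 54-4 (4 uM final); inhibition was read over 110 s.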
gsp antag: gsp mutant antagonism; gsp-mutant cells, cAMP HTRF, 30 min; control for the full effect not named in the record; Potency, µM (doses to about 76.9 µM), inactives show at the top dose activity change, negative = inhibition, actives largely listed as inhibitors; 340,000 tested, 0.4% active; active = falling curve of any shape with a large fitted effect; inconclusive = falling curve, mostly with a smaller effect; inactive = flat or rising curve; cell line not stated here;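 also: intracellular cAMP measured with PDE inhibitor Ro 20-1724 present during compound exposure; potency is read from the fitted curve at half-maximal effect; % is scaled to controls: 0 for no effect and ±100 for the full control effect; nearly all actives have a fitted effect of over 65% in size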
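Cells, 2000/well, grown 16–24 h in DMEM 10% FBS with 0.5 mg/ml G418, then compounds plus […] (300 uM addition stock), 30 min at 37C. cAMP read by HTRF (cAMP-d2 and anti-cAMP antibody-K in lysis buffer) after 30 min RT.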
Menin-MLL FL inh: inhibitors of human menin-MLL interaction, wild-type MLL peptide. AID 1766. 290,000 tested, under 10 active. FP activity change, % at 61.4 µM. Fluorescence polarization, fluorescein-MLL peptide displacement from menin; inconclusive = falling polarisation curve, or a change in total fluorescence; inactive = total fluorescence flat and polarisation flat or rising; no compound was filed as active; the % refers to the polarisation; negative = inhibition;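 also: % of control where 0% means no effect; inhibitors lower the polarisation; unlabelled MLL peptide was the positive control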
Numbers without * were called inactive; ? = inconclusive; / = no result given; [ ] = another dose, or the depositor's remark.

SMILES	TRPV1 PAM	ClpP mod	Sfp PPTase inh	gsp ag	TRPML1 blocker	gsp antag	Menin-MLL FL inh
O=C(Nc1ccc(C(=O)OC[C@@H]2CCCN3CCCC[C@H]23)cc1)c1cccc(Br)c1	-8	2.0%	-4%	14%	-5	22%	-0.1
O=C(CNC(=O)c1cccs1)c1ccc(Br)cc1	7	/	12%	6%[15.4 µM]	0	2%	0.2
COc1ccc(C(=O)Nc2cccc(C(C)=O)c2)c(OC)c1OC	-14	0.4%	3%	-10%	-4	-4%	4.9
C[C@@H]1CN([C@@H](C)CO)C(=O)CCCn2nncc2CO[C@@H]1CN(C)S(=O)(=O)c1ccc(Oc2ccccc2)cc1	/	2.6%	/	-24%	-3	/	/
Cc1c(C(=O)O)sc2nc3n(c(=O)c12)CCCCC3	4	0.7%	21%	0%	8	-8%	5.8
COc1ccc(C(=O)Nc2ccc(NC(=O)c3cccs3)cn2)cc1	23	/	-3%	9%	-24	-1%	1.6
O=C(CSc1nnc(NC(=O)c2cccc(Br)c2)s1)NCC1CCCO1 (stereo not drawn)	-7	1.9%	12%	-1%[15.4 µM]	1	-15%	/
COCCNC(=O)C(NC(=O)C1CCC(C)CC1)C(C)C (stereo not drawn)	-5	-0.4%	20%	-40%[inhibitor]	16	1%	-0.8
NC(=O)C1CCN(C(=O)c2ccc(NS(=O)(=O)/C=C/c3ccccc3)cc2)CC1	/	0.8%	/	1%	4	/	/
Cc1cc(-c2ccccc2)nc2cc(C(=O)N(Cc3ccccc3)Cc3ccccc3)nn12	-4	?	-15%	-12%	70	4%	1.5
Cn1c(N)c(N2CCCCC2)c(=O)n(CC(=O)Nc2ccc(Cl)c(Cl)c2)c1=O	-8	-3.1%	8%	-51%[inhibitor]	5	-5%	4.5
COc1ccc(S(=O)(=O)c2c(O)cc(C)c(NS(=O)(=O)c3ccccc3)c2C)cc1	-6	/	12%	-15%	11	-17%	-0.7
O=C(CSc1nnc(-c2ccccc2F)o1)Nc1ccc(N2CCOCC2)cc1	1	-0.2%	/	9%	12	-1%	/
Cc1ccc(S(=O)(=O)NCC2COc3ccccc3O2)cc1 (stereo not drawn)	-6	-2.0%	11%	0%	10	-1%	-1.1
CCOc1ccc(C2=Nc3ccc(Br)cc3C(c3ccc(N4CCOCC4)cc3)=NN2)cc1	-5	1.1%	9%	-9%	1	-10%	-0.7

Reprinted from the part before: two entries; new compounds follow.
SMILES	TRPV1 PAM	ClpP mod	Sfp PPTase inh	gsp ag	TRPML1 blocker	gsp antag	Menin-MLL FL inh
Cc1ccc(S(=O)(=O)NCC2COc3ccccc3O2)cc1 (stereo not drawn)	-6	-2.0%	11%	0%	10	-1%	-1.1
CCOc1ccc(C2=Nc3ccc(Br)cc3C(c3ccc(N4CCOCC4)cc3)=NN2)cc1	-5	1.1%	9%	-9%	1	-10%	-0.7
CCCNC(=O)Cn1cnc2sc(C(=O)N3CCCC(C(=O)OCC)C3)c(C)c2c1=O (stereo not drawn)	-4	0.4%	19%	?	11	10%	1.4
Brc1ccc(-c2nn3c(Cc4ccccc4)nnc3s2)o1	-14	-0.9%	-20%	27%	-2	-3%	2.0
COc1ccc(OC)c(NC(=O)CCNC(=O)N2CC(=O)Nc3ccccc32)c1	/	-3.8%	/	-133%[inhibitor]	1	/	/
CN(CC1COCCO1)C(=O)c1cc(COc2c(F)cccc2F)on1 (stereo not drawn)	-15	-2.4%	20%	-19%	-4	-7%	-0.1
Nc1nnc(SCC(=O)NCCOc2ccccc2)s1	?	25µM*	9%	?	-3	19%	1.0
COc1ccccc1OCCOc1ccc(/C=C2\C(=N)N3N=C(C)SC3=NC2=O)cc1	11	-2.4%	-5%	20%[15.4 µM]	20	-19%	-0.1
O=c1ccccn1CCOc1ccc(Cl)cc1	0	-1.6%	-9%	0%	-12	-3%	0.9
CCC(C)c1ccc(NC(=O)C2CC2)cc1 (stereo not drawn)	-15	1.0%	6%	18%	-6	-8%	-1.6
O=C(c1cn(-c2ccccc2)nc1-c1cccnc1)N1CCN(S(=O)(=O)c2ccc(Cl)cc2)CC1	/	-3.4%	/	-9%	7	-14%	/
O=C(c1cc(-c2ccc(Cl)cc2)n(-c2ccc(Cl)cc2)n1)N1CCOCC1	-16	-0.3%	-5%	0%	11	?	2.4
CN(C)c1ccc(C(=O)NNC(=O)c2ccc(Cl)cc2)cc1	1	/	-6%	15%[15.4 µM]	-7	5%	-0.1
COc1ccc(N(C)S(=O)(=O)c2c(C)[nH]c(=O)[nH]c2=O)c(OC)c1	4	-2.0%	18%	13%	12	9%	1.2
CC(OC(=O)c1cccc(-n2cnnn2)c1)C(=O)Nc1ccc(F)cc1Cl (stereo not drawn)	-2	/	/	44%[15.4 µM]	-1	-3%	/
O=C(NCc1ccccc1F)c1cccc(S(=O)(=O)NCc2ccccc2)c1	?	0.5%	2%	8%	13	-3%	/
COc1ccc(-c2[nH]nc3c2C2(C(=O)N(CC(=O)O)c4ccccc42)C(C#N)=C(N)O3)cc1OC (stereo not drawn)	1	0.5%	7%	-5%	-11	1%	4.5
O=C(NNC(=O)c1cnccn1)c1cccc([N+](=O)[O-])c1	18	-1.4%	2.5µM*	?	-1	11%	2.8
O=C(CSc1nnnn1-c1cccnc1)Nc1ccc(OCc2ccccc2)cc1	-5	-0.9%	9%	-29%	5	-12%	4.4
COc1ccc(-n2c(=S)[nH]c3cc(C(=O)Nc4ccc(OC)c(OC)c4)ccc3c2=O)cc1	-3	-0.8%	-4%	-9%	25	8%	6.4
CCc1ccc(NC(=O)CS(=O)CC(=O)Nc2ccc(F)cc2F)cc1 (stereo not drawn)	-16	1.7%	15%	-32%[inhibitor]	11	4%	0.8
O=C(N/N=C/c1c(O)ccc2ccccc12)c1[nH]ncc1Br	-11	1.8%	-21%	1%[15.4 µM]	6	?	?
COc1cccc(N2CCN(C(=O)c3ccc4nc[nH]c4c3)CC2)c1	-5	1.5%	8%	?	-24	-1%	/
O=c1c2ccccc2[nH]c(=S)n1CCc1ccccc1	26	7.1µM*	19%	-15%	-3	11%	0.2
Oc1ccccc1Nc1nc(-c2ccccc2O)nc2ccccc12	2	/	5%	12%	29	2%	-0.5
O=C(NC1CCC1)C1CCC(=O)N(Cc2ccc(Cl)cc2)C1 (stereo not drawn)	/	3.3%	/	-73%[inhibitor]	5	/	/
CC(C)(C)OC(=O)N1CCN(C(=O)c2[nH]cnc2C(=O)Nc2ccon2)CC1	5	-2.2%	/	-7%	19	-2%	/
O=C(Nc1ccc(F)cc1)c1ccc(S(=O)(=O)NCC2CCCO2)cc1 (stereo not drawn)	11	-0.8%	16%	-23%	23	-11%	4.3
CCCOc1ccc(C(=O)N2CCCC2)cc1OC	26	1.3%	9%	-17%	9	7%	-0.2
COc1ccc(CCNC(=O)CN(C2CCCCC2)S(C)(=O)=O)cc1	-4	0.1%	6%	-17%	-10	7%	-1.0
CC1CCCN(C(=S)NCc2ccccc2)C1 (stereo not drawn)	-11	1.0%	14%	-4%	-7	-7%	5.5
O=C(O)[C@H](Cc1ccccc1)NC(=O)N1CCC(Cc2ccccc2)CC1	12	0.2%	17%	-5%	10	5%	-0.7
COc1ccc(CN2CCC(C(=O)Nc3ccc(Oc4cccnc4)cc3)CC2)c(C)c1C	4	-0.6%	5%	-34%	25	1%	/
CCOc1cc(N2CCOCC2)c(OCC)cc1NC(=O)Cn1cnnn1	/	-0.6%	/	-18%	-4	-10%	/
O=C(Cn1nnc(-c2ccc(CN3CCOCC3)cc2)n1)NC1CCCCC1	-2	-1.3%	23%	-22%	-5	-3%	0.5
CC(C)CNC(=S)N1CCC(C(=O)c2ccc(F)cc2)CC1	-14	1.0%	-6%	-42%[inhibitor]	4	-10%	-1.2
COc1ccc(NC(=O)Nc2cc(C)cc(C)c2)cn1	-18	/	4%	-42%[inhibitor]	6	-3%	?
Cc1c(C(=O)OC(C)C)[nH]c2c1C(=O)CC(C)(C)C2	-1	0.2%	12%	-7%	-1	2%	2.5
COc1ccc(CCNC(=O)CSc2nnc(-c3ccccc3)c3ccccc23)cc1OC	-9	1.0%	7%	-26%	18	-9%	2.4
O=C(NCCN1CCN(Cc2ccc([N+](=O)[O-])cc2)CC1)C(=O)Nc1ccccc1	4	0.5%	7%	19%	34	4%	0.3
NNc1nc2c(Cl)ccc(Cl)c2s1	0	-4.0%	5%	33%[15.4 µM]	0	28µM*	7.4
Cc1ccc(C(=O)NCC(=O)N2CCCCCCC2)cc1C	-21	0.7%	/	-47%[inhibitor]	-5	16%	/
Cn1c(=O)c2c(nc(CN3CCN(C(=O)c4ccco4)CC3)n2CCCO)n(C)c1=O	-2	0.7%	9%	?	-9	-6%	/
CCN(CC)S(=O)(=O)c1ccc(NC(=O)CCNC(=O)c2ccccc2)cc1	3	/	10%	?	-8	-3%	-4.6
CCOc1cc(C(C#N)N2CCCCC2)ccc1OC (stereo not drawn)	-2	-2.6%	6%	-7%	3	3%	7.8
O=C(OCC(=O)N1CCCCCC1)c1cccnc1Cl	/	-1.5%	/	7%	-1	5%	/
COc1ccc(OC)c(NC(=O)CCc2nnc3ccc(NCc4ccco4)nn23)c1	18	0.3%	13%	-40%[inhibitor]	-8	6%	/
O=C(O)CCC(=O)N1CCc2cc(S(=O)(=O)N3CCCCC3)ccc21	/	-1.1%	9%	11%	2	3%	2.7
Nc1ccc2ncccc2c1	-11	-5.8%	?	5%	11	-1%	-1.2
CCOC(=O)N1CCN(c2nc(SC)nc3sc4c(c23)CC(C)(C)OC4)CC1	-4	?	2%	0%	2	-18%	3.8
Cc1c(Cl)cccc1NC(=O)CSC(C)c1nc2ccccc2c(=O)[nH]1 (stereo not drawn)	7	1.6%	-3%	-11%[15.4 µM]	-2	-6%	-2.8
CCC(C)c1ccc(OCCn2ccnc2)cc1 (stereo not drawn)	-5	1.4%	-6%	-4%	-2	7%	0.4
COC(=O)c1ccc(Cn2cnc3c(cnn3-c3ccc(F)cc3)c2=O)o1	9	-3.4%	-2%	6%	11	-9%	0.9
